Source: PubChem (several laboratories)
Mtb H37Rv = M. tuberculosis H37Rv growth inhibitors, H37Rv strain (AID 1626); hit rate 0.95% among 220,000; inhibition, % at 10 µM, or IC50 in µM where a hit was titrated; M. tuberculosis H37Rv growth inhibition; higher % means a stronger effect;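 active = confirmed in a dose series; inconclusive = inhibition above 80% but not taken into the dose series; inactive = below 80% or under 30% at every dose of the series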;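 note: bacteria incubated seven days before Alamar blue readout; 0% = bacteria only wells and 100% = bacteria with antibiotic wells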
YopH PTP inh = blocks Yersinia enterocolitica YopH tyrosine phosphatase. fluorescence Ex485/Em525. inhibition, %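 (about 10 µM by stock and volumes)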. hit rate 0.16% among 140,000. AID 898;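 active = inhibition of 50% or more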;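 note: controls were vehicle for no effect and minimum signal wells for full effect; inactives centre near -20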
RecA intein inh = blocks M. tuberculosis RecA intein splicing; hit rate 0.75% among 290,000; cell-free RecA intein splicing, fluorescence; inhibition, %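 (about 9 µM by stock and volumes)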; in the data active = inhibition above about 30%; inconclusive = no clear call, values can overlap the other calls;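 note: 0% = vehicle wells and 100% = reference inhibitor control wells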
Target sequence (P9WHJ3 whole entry, looked up): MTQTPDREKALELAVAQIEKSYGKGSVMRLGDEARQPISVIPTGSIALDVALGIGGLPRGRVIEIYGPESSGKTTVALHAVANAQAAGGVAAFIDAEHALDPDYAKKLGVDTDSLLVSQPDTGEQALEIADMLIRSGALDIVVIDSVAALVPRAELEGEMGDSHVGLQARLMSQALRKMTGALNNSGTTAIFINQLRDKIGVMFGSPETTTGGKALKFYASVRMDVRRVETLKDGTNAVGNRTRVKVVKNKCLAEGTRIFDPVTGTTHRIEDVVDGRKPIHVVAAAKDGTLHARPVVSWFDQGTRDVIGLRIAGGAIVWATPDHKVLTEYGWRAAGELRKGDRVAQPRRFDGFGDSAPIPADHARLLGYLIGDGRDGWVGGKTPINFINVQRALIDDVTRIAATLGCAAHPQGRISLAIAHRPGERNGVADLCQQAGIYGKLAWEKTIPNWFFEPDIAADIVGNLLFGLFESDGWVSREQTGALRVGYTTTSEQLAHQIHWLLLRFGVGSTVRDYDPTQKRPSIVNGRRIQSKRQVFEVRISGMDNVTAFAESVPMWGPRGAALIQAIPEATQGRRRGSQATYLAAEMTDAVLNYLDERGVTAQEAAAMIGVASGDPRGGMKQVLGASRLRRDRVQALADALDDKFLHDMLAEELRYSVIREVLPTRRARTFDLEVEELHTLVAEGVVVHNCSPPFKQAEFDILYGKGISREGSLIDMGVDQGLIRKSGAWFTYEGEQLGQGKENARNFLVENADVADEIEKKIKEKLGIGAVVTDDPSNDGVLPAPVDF
Arbovirus anti = arbovirus infection inhibition; arbovirus infection cell-based antiviral screen; inhibition, % at 10 µM; hit rate 0.37% among 200,000;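 active = inhibition from about 30%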;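 note: bluetongue infection of BSR cells; cell survival read as ATP light after 72 h; 0% = infected wells without compound and 100% = uninfected wells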
Mtb betalactam = beta-lactam sensitization of Mtb H37Rv; M. tuberculosis H37Rv growth with meropenem, percent inhibition; hits of this screen are not shown here; inhibition, % at 25 µM; hit rate 0.27% among 330,000;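 active = about 74% or more and at least 40 points above the plate without the antibiotic, then above 30% in a dose series; inconclusive = first-round hits that could not be retested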;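 note: growth measured after seven days incubation then overnight dye step; 0% = bacteria only wells and 100% = bacteria with antibiotic; twin plates without the antibiotic show which effects depend on it; some results filed as inactive read as strong as hits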
Arbovirus anti repeat = also measured in Arbovirus anti; calls as there; inhibition, %; measured here: 10K subset replicate screen; many hits read low in the repeat;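 first of two repeat runs on a subset; 0% = infected and 100% = uninfected wells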
Numbers without * were called inactive; u = inconclusive; x = not tested or not shown. These rows are one share of the data; count on the stated rates, not on these rows.

SMILES	Mtb H37Rv	YopH PTP inh	RecA intein inh	Arbovirus anti	Mtb betalactam	others
CCC(C)(C(=O)Nc1ccccc1C)N(C(=O)CNC(C)=O)c1ccc(C)cc1 (stereo not given)	-2%	-34	-1.4	5	1
CCOC(=O)N1CCN(C(c2ccc(F)cc2)c2sc3nc(C)nn3c2O)CC1 (stereo not given)	0%	-34	-1.5	12	-8
CC1CC(C)CN(CC(=O)NC(c2ccccc2)c2ccccc2)C1 (stereo not given)	6%	x	4.7	-1	1
Cc1nn(Cc2n[nH]c(=S)n2Cc2ccccc2)c(C)c1Cl	-3%	-37	-1.5	5	-18
CCC(=O)Nc1ccc(C(=O)CN2CCC(C)CC2)cc1	4%	x	-0.7	2	7
CCCCCCn1c(CN2CCN(Cc3ccccc3)CC2)nc2c1c(=O)n(C)c(=O)n2C	-2%	-24	1.7	-17	52
COc1ccccc1C(=O)NCC(=O)OCC(=O)Nc1cccc(S(=O)(=O)N2CCCCCC2)c1	4%	x	x	-2	7
COCCNC(=O)CC(=O)N/N=C/c1ccc(C(=O)OC)cc1	1%	x	-1.4	2	-2
CC(=O)c1cccc(NC(=O)[C@@H](NC(N)=O)C(C)C)c1	-2%	x	3.6	6	-2
COc1ccc(/C=C(\C#N)C(=O)Nc2ccccn2)cc1	x	x	-2.8	x	-3
COc1ccc([N+](=O)[O-])cc1NS(=O)(=O)c1cccc(C(=O)O)c1	-5%	x	-1.0	x	-1
CCc1ccccc1NC(=O)CSc1nnc(CNC(=O)c2ccco2)n1C	x	x	3.8	x	-2
COc1ccccc1NC(=O)CCC(=O)N1CC(C)Oc2ccc(C)cc21 (stereo not given)	x	x	0.2	x	-6
Cc1cc(C)cc(OCC(=O)NCc2cc(C)nc3ccccc23)c1	3%	x	-1.1	8	-6
CC/C(=N\N1CCCCC1)c1c(O)[nH]c(=O)[nH]c1=O	4%	x	2.0	x	-1
Cc1ccc(-c2n[nH]c(=S)n2C)cc1Cl	9%	x	1.0	-1	0
O=C1CC(NNc2ccccc2)C(=O)N1c1cccc(Cl)c1 (stereo not given)	3%	-17	-0.1	-27	4
CC1Cc2ccccc2N1C(=O)COC(=O)c1cc(Br)ccc1O (stereo not given)	x	x	-1.2	x	1
CNC(=O)C(=O)NCC1OCCN1S(=O)(=O)c1ccc([N+](=O)[O-])cc1 (stereo not given)	-1%	-21	-1.4	4	-3
COc1ccc(S(=O)(=O)N2CCCC(C(=O)NCc3ccco3)C2)cc1Cl (stereo not given)	-10%	-2	-1.1	-2	5
O=C(C[n+]1cc(-c2ccccc2)n2c1CCC2)c1cccs1	-2%	x	-1.1	14	-3
COc1ccc(C2CCCN2C(=S)Nc2ccc(C)c(C)c2)cc1OC (stereo not given)	3%	x	6.8	6	-2
O=C(c1ccc2c(=O)n(Cc3ccco3)c(=S)[nH]c2c1)N1CCN(Cc2ccccc2)CC1	-6%	-92	2.1	-3	6
Cc1nc(N2CCOCC2)nc(N2CCCCC2)c1[N+](=O)[O-]	6%	11	5.7	-11	2
CC(C)c1cc(C(=O)NNC(=S)NCc2ccco2)c(O)c(C(C)C)c1	-1%	-18	14	3	8
COc1ccc(CNc2oc(COc3ccc(Cl)cc3)nc2C#N)cc1	5%	-37	5.9	-24	78
O=C(COC(=O)Cc1ccsc1)NCC12CC3CC(CC(C3)C1)C2	-3%	-17	-1.8	9	-5
N#Cc1c(NCCCO)nc(-c2ccco2)c2c1CCCC2	6%	-10	-37	-3	8
CCOC(=O)Cc1cc(-c2ccc(OC)cc2)nc2ccc3ccccc3c12	1%	-22	0.3	2	12
CNC(=S)Nc1cc(OC)ccc1OC	-5%	-16	0.4	-2	-5
C/C(=N\NC(=S)NC(C)C)c1ccc(Cl)c([N+](=O)[O-])c1	-1%	x	-0.5	x	-5
Cc1noc(C(=O)NCc2ccco2)c1Cl	4%	-41	1.2	9	1	Arbovirus anti repeat=-5
O=C(CSc1nc2ccccc2c(=O)[nH]1)Nc1nc(-c2ccc(Br)cc2)cs1	x	x	1.5	x	6
Cc1ccc(S(=O)(=O)CCc2nnc(NC(=O)C3CCCO3)s2)cc1 (stereo not given)	-7%	9	-5.1	5	-6
Cc1ccc(-n2c(-c3ccccc3)nnc2-c2cccs2)cc1	6%	-18	2.0	-10	-3
Cc1ccc2occ(/C=N/NC(=O)c3ccc(O)cc3)c(=O)c2c1	x	x	12	x	1
COc1ccc2cc(CN(CC3COCCO3)S(=O)(=O)c3c(C)cc(C)cc3C)c(=O)[nH]c2c1 (stereo not given)	-6%	-45	x	0	x
COc1ccc(-n2nnnc2SC(C)C(N)=O)cc1 (stereo not given)	-6%	-26	0.7	-1	4
COC(=O)[C@@H](NC(=O)Nc1ccc(OC)cc1)C(C)C	2%	-30	0.8	5	-6
CCCCNC(=O)c1onc(CSc2ccc(OC)cc2)c1C(=O)O	-6%	-3	2.5	4	x
O=C(N/N=C1\CCc2ccccc21)c1ccncc1	-4%	-26	4.3	2	0
O=c1[nH]c(CSc2ncc(C(F)(F)F)cc2Cl)nc2ccccc12	10%	x	-2.0	2	3
CNc1oc(-c2ccc(OCc3ccccc3)cc2)nc1C#N	x	-17	0.2	-25	72
COc1ccccc1NC(=O)CC(c1ccc(F)cc1)c1ccco1 (stereo not given)	-4%	x	2.3	x	72
Cc1cc(CN(C)C(=O)c2ccc3nc(Cc4ccccc4F)oc3c2)on1	x	x	0.4	x	-7
COc1ccc(O)c(-c2[nH]ncc2C(=O)c2cccc(C)c2)c1	x	x	-3.0	x	1
Cc1cc(C(=O)Nc2ccc(S(=O)(=O)N3CCOCC3)cc2)c(C)o1	3%	x	-0.2	x	-4
COc1ccccc1C(=O)Nc1ccnn1C1CCN(Cc2csc(C(C)=O)c2)CC1	x	x	2.7	x	-3
COc1cccc(NS(=O)(=O)c2c(C)n(C)c(=O)n(C)c2=O)c1	-3%	-55	-0.1	2	-1
Cc1c(C(=O)NCc2ccccn2)sc2nc(-c3ccc(F)cc3)cn12	-1%	-28	-4.6	-37	u
Nc1ccccc1SCC(=O)Nc1cccc2ccccc12	x	x	4.4	x	3
COCCn1c(NCc2ccc(C)cc2)nc2c1c(=O)[nH]c(=O)n2C	5%	-23	0.2	-6	-7
O=C(Nc1ccccc1F)c1ccc(CSc2ncccn2)cc1	-5%	x	5.6	1	0
COc1ccc(CC(=O)Nc2c3c(nn2-c2cccc(Cl)c2)CS(=O)(=O)C3)cc1	-7%	-12	-0.5	17	2
CN(C)S(=O)(=O)c1ccc(C(=O)Nc2nnc(SCc3cccc(F)c3)s2)cc1	-8%	-39	-0.2	-5	6
CC(=O)c1c(C)[nH]c(C(=O)N2CCC3(CC2)OCCO3)c1C	5%	-43	-1.7	1	-17
COC(=O)[C@H](C)NC(=O)NCc1ccc(F)cc1	3%	0	-1.8	1	4
Nc1cccc(-c2cc3ccccc3oc2=O)c1	29µM*	x	-7.1	-10	-4
CC1(C)CC(=O)C2=C(C1)NCN(Cc1ccc3c(c1)OCO3)C2	-6%	-12	0.5	4	-4
O=C(NCc1cccs1)C(=O)NCC1OCCCN1S(=O)(=O)c1cc(F)ccc1F (stereo not given)	x	x	-5.0	x	0
New compounds follow:
SMILES	Mtb H37Rv	YopH PTP inh	RecA intein inh	Arbovirus anti	Mtb betalactam	others
CCn1c(SCc2ccccc2)nc2cc(OC)c(OC)cc2c1=O	x	x	11	x	96
O=C(N/N=C/c1c[nH]c2ccccc12)c1cc(-c2ccc3ccccc3c2)n[nH]1	19%	8	0.8	-38	85
COc1ccc(S(=O)(=O)N(C)CC(=O)Nc2ccc(C(F)(F)F)cc2)cc1Cl	0%	-18	-0.6	-2	-7
O=c1/c(=C\c2cccn2-c2ccccc2)sc2nc3ccccc3n12	-1%	-23	x	-5	x
Cc1sc2ncnc(NCc3ccco3)c2c1C	x	-35	1.3	11	-11	Arbovirus anti repeat=10
O=C1Nc2ncccc2OC1CCCl (stereo not given)	x	-29	-1.7	0	-6
COc1ccccc1Oc1ccc(N/C=C/C(=O)c2ccco2)cc1	3%	x	0.8	-4	-4
COC(=O)NC1(C(=O)O)CCCC1	-8%	x	-2.0	x	-14
COc1ccc(CC(=O)O/N=C(\N)Cc2ccc(OC)c(OC)c2)cc1	-1%	-23	3.0	14	-7
COc1ccc(N(CC(=O)NC2CCCC2)C(=O)c2ccc(N3CCCCC3)nc2)cc1	13%	-18	3.4	1	-12
Cc1ccc(OC(=O)CCC(=O)Nc2ccc(Br)cc2)cc1	-8%	-22	0.3	10	4
COc1ccc(-c2cc(C(=O)N(C)Cc3ccc(OC)c(OC)c3OC)c3ccccc3n2)cc1OC	x	x	2.8	x	-11
CC1(C)Cc2ccccc2C(NNC(=O)c2ccc(Br)o2)=N1	x	x	0.9	x	-5
C/C(=N\Nc1ccccc1)c1cccc(N)c1	x	x	-1.3	x	1
CCOC(=O)C1=C(C(F)(F)F)Nc2ncnn2C1c1cc(OC)ccc1OC (stereo not given)	6%	-16	-2.6	6	4

Brought forward from above: 4 entries, then new ones.
SMILES	Mtb H37Rv	YopH PTP inh	RecA intein inh	Arbovirus anti	Mtb betalactam	others
COc1ccc(-c2cc(C(=O)N(C)Cc3ccc(OC)c(OC)c3OC)c3ccccc3n2)cc1OC	x	x	2.8	x	-11
CC1(C)Cc2ccccc2C(NNC(=O)c2ccc(Br)o2)=N1	x	x	0.9	x	-5
C/C(=N\Nc1ccccc1)c1cccc(N)c1	x	x	-1.3	x	1
CCOC(=O)C1=C(C(F)(F)F)Nc2ncnn2C1c1cc(OC)ccc1OC (stereo not given)	6%	-16	-2.6	6	4
CCc1ccc(-c2nc(CSCC(=O)NCCCN3CCCC3=O)c(C)o2)cc1	-1%	7	1.1	-1	6
NS(=O)(=O)c1ccc(OC(=O)CNC(=O)OCc2ccccc2)cc1	x	x	11	x	2
CC(C)CC(=O)c1c[nH]c(C(=O)NCCCN2CCOCC2)c1	2%	-27	0.5	5	1
COc1ccc2nc(C)cc(SCC(=O)N/N=C/c3ccc(O)cc3O)c2c1	8%	-6	-1.2	-25	12
O=C(NCCC1CCCCN1S(=O)(=O)c1ccccc1)C(=O)Nc1ccc(F)cc1F (stereo not given)	x	x	-2.3	x	-2
CN(C)C(CNC(=O)c1ccc2c(=O)n(-c3ccccc3F)c(=S)[nH]c2c1)Cc1ccccc1 (stereo not given)	2%	x	-0.2	0	-17
CCn1cc(NC(=O)CCl)c(C)n1	5%	x	13	13	87
COc1ccc(S(=O)(=O)Nc2nnc(C(C)(C)C)s2)cc1	4%	-17	x	12	-2
O=[N+]([O-])c1ccc(OCCCOc2cccc3cccnc23)cc1	x	x	8.9	x	2
O=C(C1CCCO1)N1CCN(S(=O)(=O)c2cccc3nsnc23)CC1 (stereo not given)	-2%	-1	0.9	3	-9
COc1ccc(CNC(=O)CCc2nnc3ccc(N4CCC5(CC4)OCCO5)nn23)cc1	x	x	7.6	x	u
Cc1nn(CCO)c2nc(-c3cccs3)cc(C(F)(F)F)c12	14%	-26	-0.2	-20	10
CCOC(=O)C1(CC2CCCCO2)CCN(Cc2nccn2-c2ccc(OC)cc2)CC1 (stereo not given)	0%	x	1.9	3	2
Cc1cc(OCC(=O)N2CCN(c3ccccc3)CC2)c2c(C)cc(=O)oc2c1	x	x	-0.3	x	4
CCOc1ccc(-n2c(O)c(C=NCCCn3ccnc3)c(=O)[nH]c2=O)cc1	-4%	-2	-0.5	2	7
O=C(COc1ccccc1/C=C1/NC(=O)NC1=O)Nc1ccccc1	2%	-22	-10	-14	0
O=C(O)c1cc2cc(Cl)ccc2oc1=O	12%	-47	-0.6	2	0
C=CCn1c(SCC(=O)NC(=O)NCc2ccco2)nc2sc(CC)cc2c1=O	0%	-35	-0.7	0	-9
COC(=O)N/N=C(/c1ccccc1)C1CCCCC1	-10%	x	0.8	3	3
COc1cccc(CN2CCNC(=O)C2CC(=O)NCCn2cccn2)c1OC (stereo not given)	-2%	x	x	-4	7
CC(=O)CCc1ccc(Oc2nc(-c3cccnc3)nc3ccccc23)cc1	17%	x	1.2	-8	81
CCCNC(=O)C1CN(S(=O)(=O)c2ccccc2)CCN1S(=O)(=O)c1ccccc1 (stereo not given)	-1%	-32	-0.8	2	-2

5 compounds from above, ordered by SMILES length, largest number first:
SMILES	Mtb H37Rv	YopH PTP inh	RecA intein inh	Arbovirus anti	Mtb betalactam	others
CN(C)C(CNC(=O)c1ccc2c(=O)n(-c3ccccc3F)c(=S)[nH]c2c1)Cc1ccccc1 (stereo not given)	2%	x	-0.2	0	-17
CN(C)S(=O)(=O)c1ccc(C(=O)Nc2nnc(SCc3cccc(F)c3)s2)cc1	-8%	-39	-0.2	-5	6
CC(C)c1cc(C(=O)NNC(=S)NCc2ccco2)c(O)c(C(C)C)c1	-1%	-18	14	3	8
Cc1cc(C)cc(OCC(=O)NCc2cc(C)nc3ccccc23)c1	3%	x	-1.1	8	-6
Cc1ccc(-c2n[nH]c(=S)n2C)cc1Cl	9%	x	1.0	-1	0
